Dynein cargo inh = dynein cargo transport inhibition; 3617.4 mouse cells, GR-EGFP nuclear translocation imaging; test concentration mostly 20 µM; stimulated with dexamethasone, 1 µM; hits give low values; z-score, hits read low; 220,000 compounds, 0.47% hits;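 active = plate z-score of nuclear minus cytoplasmic receptor signal below a set negative limit, without overly bright fluorescence or cell loss, cut at about -3.5 in these data, passing the limit was not always enough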;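 also: z-score of nuclear minus cytoplasmic ring GR-EGFP intensity difference per well; some compounds called inactive have numbers as strong as hits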
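Buffer or medium: Induction medium lacking tetracycline, stripped serum | Also added: Dexamethasone agonist, 1.0 µM final, for 30 min | Timing: 48 h induction, 1 h compound, 30 min dex at 37 °C | Detection: Formaldehyde fixation, Hoechst nuclear stain, 10x automated fluorescence imaging | Measure: Nuclear versus cytoplasmic GR-EGFP signal, averaged per well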
XIAP antagonists = small molecules displacing peptide from XIAP – biochemical, IAP family, fluorescence polarization (AID 1018). XIAP BIR domain, fluorescence polarization peptide displacement; higher % means a stronger effect. 200,000 compounds, 0.007% hits. one-dose displacement, % at 20 µM; IC50 in µM for titrated hits; in the data active = displacement above about 50%; also: a part of the inactive calls stands beside numbers as strong as those of hits
CSM14.1 death rescue = rescue of cells from ER stress-induced death, primary screen, 384-well, CSM14.1, thapsigargin, ATP luminescence (AID 1222) | 190,000 tested, under 10 active | CSM14.1 thapsigargin-induced death rescue, ATP luminescence; higher % means a stronger effect | one-dose cellular ATP content (survival), % at 20 µM; EC50 in µM for titrated hits;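 active = EC50 below 50 µM in the dose-response confirmation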;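 also: death triggered by thapsigargin at about 15 µM added after 2 h compound pretreatment; cell ATP read after overnight thapsigargin exposure of roughly 18 to 22 hours; normalized against plate controls of thapsigargin alone and 5% DMSO vehicle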
Ins promoter up = MIN6 insulin promoter up-regulation; MIN6 insulin promoter-GFP reporter, high-content imaging; hits give high values; z-score at 5 µM; 190,000 compounds, 0.3% hits; AID 1625;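 active = z-score above 3 at 5 µM with at least 500 cells counted in the well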
Autophagy mod = autophagy modulation, high-content screen; MEF GFP-LC3 puncta imaging; test concentration mostly 10 µM; calls only at 10 µM (by protocol); 190,000 compounds, 0.98% hits; AID 463193;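 active = percentage of spot-positive cells more than 3 SD above its plate mean, without a fluorescence outlier flag or 80% toxicity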;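 also: spot-positive cell cutoff set from DMSO-treated cells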
MT stabilizer = microtubule stabilization, imaging screen; % tubulin-high responders, % at 10 µM; 200,000 compounds, 0.83% hits; HeLa tubulin immunostaining HCS, 24 h; share of cells brighter than vehicle mean+2SD;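 active = plate Z-score above 3 for both tubulin-high and condensed-nucleus cell shares, with cell loss under 80%, at 10 µM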;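 also: anti alpha tubulin signal scored within the nucleus-defined area of each cell; some results filed as inactive read as strong as hits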
Hep lipid drop = modulators of hepatic lipid droplet formation; AML12 mouse hepatocytes, oleate lipid droplets, BODIPY imaging; inhibition, % at 6.5 µM; 240,000 compounds, 0.4% hits;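 active = lipid droplet intensity inhibited by at least 50%, with more than 500 cells counted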
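Assay system: AML12 hepatocytes (mouse) / Also added: 100 µM oleic acid challenge / Times: overnight treatment with compound plus oleate / Detection: high-content imaging of BODIPY-stained droplets and DAPI nuclei / Evaluation: % inhibition of lipid droplet signal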
WT yeast gro inh = growth inhibition of WT yeast, mitochondrial fusion screen; mitochondrial fusion phenotypic screen, WT strain; inhibition, % at 10 µM; 190,000 compounds, 2.1% hits; in the data active = inhibition above about 58%; tested in S. cerevisiae
WT yeast gro inh mutant strain = second read-out of WT yeast gro inh, no call of its own (marks repeat the call); inhibition, %; mitochondrial fusion phenotypic screen, mutant strain inhibition
Dynein cargo inh cytoplasmic EGFP = second read-out of Dynein cargo inh, no call of its own (marks repeat the call); z-score; measured here: cytoplasmic GR-EGFP intensity; hits give high values
Dynein cargo inh nuclear GR-EGFP = second read-out of Dynein cargo inh, no call of its own (marks repeat the call); z-score; measured here: nuclear GR-EGFP intensity;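 lower value marks the stronger effect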
Dynein cargo inh cell count = also measured in Dynein cargo inh; calls as there; z-score; measured here: cell count per field
Ins promoter up cell count = also measured in Ins promoter up; calls as there; cell count; measured here: cytotoxicity, nuclei count;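 total cells summed across four imaged fields per well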
Hep lipid drop cells 6.5 µM = second read-out of Hep lipid drop, no call of its own (marks repeat the call); cell count; measured here: cell count, cytotoxicity flag;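 cells counted across two imaged fields per well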
MT stabilizer Hoechst-high % = further read-out of MT stabilizer, marked with its call; % Hoechst-high responders; measured here: nuclear condensation Hoechst responders;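 share of cells brighter than vehicle mean plus two SD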
MT stabilizer cytotoxicity % = second read-out of MT stabilizer, no call of its own (marks repeat the call); toxicity, %; measured here: cytotoxicity by cell density;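 0% = mean cell density of plate MIN control wells and 100% = no cells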
Autophagy mod cell loss 18 h = recorded beside Autophagy mod, whose call it bears; toxicity, %; measured here: cell loss, nuclei count;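 cell loss after 18 h compound exposure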
The depositor's hits bear a star; i = inactive; x = not tested or not shown; + = active, no number. This is a subset; count on the stated rates, not on these rows.

SMILES	Dynein cargo inh	Dynein cargo inh cytoplasmic EGFP	Dynein cargo inh nuclear GR-EGFP	Dynein cargo inh cell count	XIAP antagonists	CSM14.1 death rescue	Ins promoter up	Ins promoter up cell count	Autophagy mod	Autophagy mod cell loss 18 h	MT stabilizer	MT stabilizer Hoechst-high %	MT stabilizer cytotoxicity %	Hep lipid drop	WT yeast gro inh	WT yeast gro inh mutant strain	others
CC1CCc2c(C(=O)NCCN3CCOCC3)csc2C1 (centres undefined)	-0.4	0.26	-0.1	0.76	-6.0%	1.7%	-0.57	1417	i	1	5.7	4.6	2.5	x	0	15
Cc1ccc(C)c(NC(=S)c2ccccn2)c1	-0.56	-0.19	-0.032	-0.29	-0.8%	-2.1%	-0.61	1489	i	1	3.2	1.5	0.8	x	64	70
COC(=O)Sc1nnc(-c2ccc(Br)cc2)o1	-0.82	-0.33	-0.55	-0.025	-7.4%	-1.1%	0.49	1641	i	13	2.8	1.9	4.7	x	9	3
O=C(N/N=C/c1ccco1)c1ccccn1	3	-0.18	2.4	-2	-3.8%	-1.6%	1.3	1551	i	9	3.3	1.4	7.7	x	51	0
COC(CNC(=O)c1ccc(N2CCCC2=O)cc1)OC	-0.097	-0.17	-0.22	0.97	-1.7%	1.4%	1.1	855	i	14	2.8	1.8	4.4	-6	2	5	Hep lipid drop cells 6.5 µM=807
O=C(Oc1ccc2cc(Br)ccc2c1)c1cccnc1	0.82	-0.24	0.0032	-0.8	-12%	-1.1%	0.62	1577	i	6	1.0	1.7	9.9	x	-6	12
Cc1cc(C)c(C#N)c(SCC(=O)C(C)(C)C)n1	0.036	-0.26	0.13	1.2	-5.4%	-1.5%	1.6	1452	i	8	2.8	1.3	9.7	x	-1	5
CC(=O)NC(O)C(=O)c1ccco1 (centres undefined)	-0.29	-0.15	0.26	-0.55	-2.2%	-2.8%	-0.21	1510	i	10	6.3	2.4	8.3	x	4	-9
COc1ccc(OCCn2cc(/C(N)=N/O)c3ccccc32)cc1	-0.063	-0.2	-0.88	0.075	-6.4%	-1.3%	3.1*	1374*	i	7	2.3	1.5	6.3	x	13	2
CCN1C(=O)C(CC(=O)Nc2ccc(Br)cc2)N(CCCc2ccccc2)C1=S (centres undefined)	0.28	-0.18	-0.029	-0.76	-15%	-1.4%	-0.2	1583	i	-2	2.7	1.3	6.0	x	47	8
CC(C)(C)c1ccc(C(=O)c2c[nH]c(C(=O)NCCCn3ccnc3)c2)cc1	2.5	-0.21	0.55	-0.8	-5.1%	3.1%	0.06	1431	i	6	2.4	0.9	4.4	x	5	15
CCOC(=O)c1c[nH]c2c(C)cc(C)cc2c1=O	0.19	0.13	0.65	0.85	1.6%	4.4%	-0.09	1601	i	-21	2.8	2.0	8.2	x	2	11
CN1C(=O)CC(NNC(=O)c2ccccc2)C1=O (centres undefined)	0.57	-0.26	-0.75	0.35	-20%	-1.2%	1.2	1527	i	-3	2.3	1.9	7.8	x	-5	-1
CCOC(=O)c1c(C)[nH]c(C(=O)C(C)Sc2ccc(Cl)cc2)c1C (centres undefined)	0.13	-0.25	-0.58	-0.83	-0.9%	-0.3%	0.06	1514	i	4	2.5	1.8	10	x	-4	-35
COc1cc(NC(=O)c2ccco2)c(C(=O)O)cc1OC	-0.75	-0.23	-0.98	0.41	-7.2%	-1.2%	-0.1	1503	i	0	3.0	2.1	5.4	x	6	-3

Reprinted at random: five records from the list
SMILES	Dynein cargo inh	Dynein cargo inh cytoplasmic EGFP	Dynein cargo inh nuclear GR-EGFP	Dynein cargo inh cell count	XIAP antagonists	CSM14.1 death rescue	Ins promoter up	Ins promoter up cell count	Autophagy mod	Autophagy mod cell loss 18 h	MT stabilizer	MT stabilizer Hoechst-high %	MT stabilizer cytotoxicity %	Hep lipid drop	WT yeast gro inh	WT yeast gro inh mutant strain	others
COc1cc(NC(=O)c2ccco2)c(C(=O)O)cc1OC	-0.75	-0.23	-0.98	0.41	-7.2%	-1.2%	-0.1	1503	i	0	3.0	2.1	5.4	x	6	-3
CCOC(=O)c1c(C)[nH]c(C(=O)C(C)Sc2ccc(Cl)cc2)c1C (centres undefined)	0.13	-0.25	-0.58	-0.83	-0.9%	-0.3%	0.06	1514	i	4	2.5	1.8	10	x	-4	-35
CCN1C(=O)C(CC(=O)Nc2ccc(Br)cc2)N(CCCc2ccccc2)C1=S (centres undefined)	0.28	-0.18	-0.029	-0.76	-15%	-1.4%	-0.2	1583	i	-2	2.7	1.3	6.0	x	47	8
O=C(Oc1ccc2cc(Br)ccc2c1)c1cccnc1	0.82	-0.24	0.0032	-0.8	-12%	-1.1%	0.62	1577	i	6	1.0	1.7	9.9	x	-6	12
COc1ccc(OCCn2cc(/C(N)=N/O)c3ccccc32)cc1	-0.063	-0.2	-0.88	0.075	-6.4%	-1.3%	3.1*	1374*	i	7	2.3	1.5	6.3	x	13	2

New compounds follow:
SMILES	Dynein cargo inh	Dynein cargo inh cytoplasmic EGFP	Dynein cargo inh nuclear GR-EGFP	Dynein cargo inh cell count	XIAP antagonists	CSM14.1 death rescue	Ins promoter up	Ins promoter up cell count	Autophagy mod	Autophagy mod cell loss 18 h	MT stabilizer	MT stabilizer Hoechst-high %	MT stabilizer cytotoxicity %	Hep lipid drop	WT yeast gro inh	WT yeast gro inh mutant strain	others
Cn1nc(C(F)(F)F)c(C(=O)Nc2ccc(Cl)cc2)c1Cl	1.6	-0.18	1.5	-0.42	-6.0%	0.7%	0.1	1622	i	-14	2.4	2.0	6.6	x	-13	4
Clc1ccc(CCNc2nc3ccccc3s2)cc1	1.3	-0.053	0.13	-0.63	-4.4%	-1.4%	-0.27	1613	i	-2	3.5	1.3	8.1	x	3	-4
COC(=O)c1cc2n(n1)CCN(Cc1ccc(OC)cc1)C2=O	0.78	-0.011	0.36	-1.2	-2.5%	-1.0%	-0.34	1661	i	0	3.7	2.3	9.0	x	-3	-1
O=C1OCC(CO)(CO)N=C1NNc1ccc(Cl)c(Cl)c1	0.91	-0.061	1.3	-1.2	-4.1%	-1.2%	-0.47	1586	i	15	4.2	2.1	6.4	x	68	83
O=C(CSc1ncnc2c1cnn2CCc1ccccc1)Nc1ccc(F)cc1	0.78	-0.17	1.1	0.3	0.9%	-1.2%	-0.05	1618	i	4	2.5	2.3	9.3	x	9	-8
CCc1ccc(OCC(=O)NC(=S)Nc2ccc(C)cc2C)c(Br)c1	0.46	-0.21	0.76	0.46	-3.7%	-1.4%	-0.52	1633	i	10	2.0	1.6	6.0	x	5	3
COC(=O)C1=COC(C)C2CN3CCc4c([nH]c5ccccc45)C3CC12 (centres undefined)	-0.52	-0.16	-0.2	0.94	-4.3%	-1.2%	0.86	1420	i	1	4.1	4.1	8.6	x	16	4
CCNC(=S)NNC(=O)c1ccoc1C	-0.16	-0.16	0.13	-0.65	-3.0%	-0.9%	-0.43	1556	i	0	1.2	0.9	7.1	x	-10	7
CCN(CC(=O)NC1CCS(=O)(=O)C1)c1ccc(S(C)(=O)=O)cc1[N+](=O)[O-] (centres undefined)	-0.89	-0.24	-1.1	1.1	0.2%	4.0%	1.2	1541	+	10*	2.6	2.6	7.2	x	13	-1
Cc1ccc2oc(-c3cccc(NC(=S)NC(=O)/C=C/c4ccco4)c3)nc2c1	-0.96	-0.098	0.2	0.5	-20%	-1.4%	-0.08	1390	i	-10	37*	18*	40*	x	-6	13
COc1ccc(/C=C2\NC(=S)N(CC3CCCO3)C2=O)c(OC)c1 (centres undefined)	-1.3	-0.21	-0.058	0.85	-6.6%	0.4%	-0.1	1617	i	5	2.2	2.6	9.8	x	12	26
CC(C)CNC(=S)NC1CC2CCC(C1)N2Cc1ccccc1 (centres undefined)	0.45	0.12	0.26	-1.1	-3.9%	0.9%	0.01	1394	i	0	1.8	1.6	5.2	x	4	11
O=C(Nc1nc2c(s1)CN(Cc1ccccc1)CC2)c1cccc(S(=O)(=O)N2CCc3ccccc32)c1	-1	2.5	-0.75	-0.037	-13%	-0.1%	0.79	1579	i	6	2.8	1.7	10.0	x	-23	-35
COc1ccc(C2CC(=O)c3cnc(NC(=O)c4cccc(OC)c4)nc3C2)cc1 (centres undefined)	-0.36	-0.36	0.14	-0.48	-5.9%	-1.1%	-0.58	1083	i	5	3.9	2.8	13	x	-3	0
CCOC(=O)C1CCCN(C(=O)C2CCN(S(=O)(=O)CC)CC2)C1 (centres undefined)	1.5	-0.14	0.73	-0.51	-3.2%	-0.2%	-0.18	1610	i	2	1.6	2.0	12	x	8	12
O=C(NC(NC(=S)Nc1ccccc1)C(Cl)(Cl)Cl)c1cccc(Cl)c1 (centres undefined)	2.6	-0.081	2.2	-2.6	-8.6%	0.9%	-0.73	1408	i	-16	3.9	2.1	12	x	-11	4
CCN1CCCC1CNC(=O)c1cc(NC(C)=O)c(N(C)C)cc1OC (centres undefined)	0.41	-0.39	-0.063	0.24	-1.0%	-0.7%	-0.19	1678	i	47	6.1	2.8	15	x	3	-10
O=C(C(Cc1ccccc1)N1C(=O)C2C3C=CC(C3)C2C1=O)N1CCCCCC1 (centres undefined)	-0.55	-0.22	-0.37	-0.55	-5.3%	-0.7%	-0.83	1188	i	2	1.9	1.2	1.5	0	1	14	Hep lipid drop cells 6.5 µM=749
COc1ccccc1OCCN1C(=O)S/C(=C\c2ccco2)C1=O	0.47	-0.12	0.79	0.54	-7.7%	-1.8%	-1.2	1524	i	12	2.4	2.6	5.2	x	0	4
Cc1cc2nc(-c3ccc(SCc4ccc(C#N)cc4)nc3)[nH]c2cc1C	0.12	-0.1	0.8	0.3	-3.8%	-0.2%	-0.03	1599	i	22	2.9	4.1	2.0	x	-20	-8
Clc1ccc(CSc2nnc(-c3cccnc3)o2)cc1	0.11	-0.076	0.42	-0.79	1.6%	2.3%	-0.21	1600	i	1	3.2	3.0	1.0	x	14	36
CC1=C(C#N)C(NC(=O)C(C)(C)C)(C(F)(F)F)C(=O)N1 (centres undefined)	-0.79	-0.11	-1.1	-0.23	-3.6%	1.1%	-0.48	1673	i	-6	3.0	2.4	2.9	x	7	10
C=CCn1c(SCc2ccc(C#N)cc2)nnc1-c1ccc(C)cc1	-0.15	-0.28	0.081	0.3	-4.8%	2.1%	-1.4	1398	i	0	2.4	1.5	6.5	x	7	-14

Screening results deposited in PubChem by several laboratories.
